# From PubChem BioAssay
# GIRK2 activ: activators of human GIRK2 potassium channels; P48051; HEK293-GIRK2 thallium flux, Thallos fluorescence; calls only for hits at 25 µM; 63,000 compounds, 0.05% hits;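 active means among the strongest 0.2% of first-round signals and kept after retests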;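 further: first round at about 10 µM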
# Target sequence (P48051 whole entry, looked up): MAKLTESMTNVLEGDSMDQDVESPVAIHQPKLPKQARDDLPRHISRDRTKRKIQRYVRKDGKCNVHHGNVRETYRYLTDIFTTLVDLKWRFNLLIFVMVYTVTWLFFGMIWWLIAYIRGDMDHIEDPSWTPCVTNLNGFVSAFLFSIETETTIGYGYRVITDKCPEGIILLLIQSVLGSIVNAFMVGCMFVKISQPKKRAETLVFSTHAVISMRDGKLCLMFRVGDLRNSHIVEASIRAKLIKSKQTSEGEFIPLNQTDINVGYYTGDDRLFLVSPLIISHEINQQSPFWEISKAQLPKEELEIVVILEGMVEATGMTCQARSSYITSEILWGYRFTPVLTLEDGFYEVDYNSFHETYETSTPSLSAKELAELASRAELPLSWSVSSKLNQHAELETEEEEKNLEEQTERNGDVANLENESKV
# Calls only; i = inactive. An excerpt (hit frequency here may not be typical).
No.	SMILES	GIRK2 activ
1	COc1ccc(CCNC(=O)c2nnn(-c3ccc(Cl)cc3)c2-c2cccnc2)cc1OC	i
2	O=C(COc1ccccc1F)NC1CC(=O)N(C2CC2)C1 (configuration not stated)	i
3	COc1ccc(NC(=O)Cn2cc(-c3nc(-c4ccc(Cl)cc4)no3)ccc2=O)cc1	i
4	COc1ccc(-c2cc(N3CCC(C(=O)Nc4ccc(C)c(F)c4)CC3)ncn2)cc1	i
5	CCN(CC)c1ccc(N2C(=O)/C(=C/c3ccc(O)c(OC)c3)SC2=S)cc1	i
6	CCCN(C)c1nccn2c(=O)n(CC(=O)Nc3ccc(Br)cc3)nc12	i
7	Cc1noc(-c2cccn(CCOc3ccccc3)c2=O)n1	i
8	CC(=O)Nc1ccc(SCCCC(=O)Nc2ncc([N+](=O)[O-])s2)nn1	i
9	COc1ccc(CCNC(=O)CSC2=NNC3C4CC(c5ccccc5)NN4C=CN23)cc1OC (configuration not stated)	i
10	Cc1noc(C)c1CSc1nc2c(c(-c3ccccc3)c1C#N)C(=O)CC(C)(C)C2	i
11	Cc1cccc(C)c1NC(=O)CSc1nccn1-c1ccc(C(=O)NCc2ccco2)cc1	i
12	COc1ccc(NC(=O)CSc2nc(C)c(Cc3ccccc3)s2)cc1	i
13	CC/C=C\C/C=C\C/C=C\C/C=C\CCCCCCC(=O)OCC	i
14	CC(=O)Oc1ccc2c(=O)c(Oc3ccccc3Br)c(C)oc2c1	i
15	COc1cc(C)c(NC(=O)CN(C)C)cc1Nc1nc(Nc2cccc(F)c2C(N)=O)c2cc[nH]c2n1	i
16	COc1ccc(S(=O)(=O)NCCCN2CCN(c3ccccc3)CC2)cc1C	i
17	COc1ccc(S(=O)(=O)N2CCCc3cc(NC(=O)NCc4ccccc4)ccc32)cc1	i
18	O=C(c1ccc(Br)o1)N1CC(c2nc(-c3cnccn3)no2)C1	i
19	CCOc1ccc2nc(NC(=O)c3coc(NC(=O)c4cc(C)on4)n3)sc2c1	i
20	O=C(CSc1nc(-c2cccc([N+](=O)[O-])c2)cs1)NCCc1ccccc1	i
21	COc1ccc(S(=O)(=O)N2CCCOC2CNC(=O)C(=O)NC2CC2)cc1OC (configuration not stated)	i
22	Cc1cc(NC(=O)C2CCN(C(=O)c3csc(-c4ccccc4)n3)CC2)no1	i
23	Cc1nc(SCCO)c2oc3ccccc3c2n1	i
24	COc1ccc(S(=O)(=O)c2cnc(SCC(=O)Nc3cccc(Cl)c3C)[nH]c2=O)cc1	i
25	CCCOc1ccc(/C=C/C(=O)Nc2ccc(C)cc2)cc1	i
26	O=C(NCCCN1CCN(c2ccccc2)CC1)C(=O)NC1CCCC1	i
27	COc1cccc(CNC(=O)C(=O)NCCC(O)c2ccccc2)c1 (configuration not stated)	i
28	O=C(CN1CCN(C(=O)c2cc3ccccc3o2)CC1)c1ccco1	i
29	Cc1ccc(-c2ccc(CCC(=O)Nc3ccc(S(N)(=O)=O)cc3)o2)cc1	i
30	O=c1[nH]c2c3ccccc3cn2c2ccc(Br)cc12	i

# Arranged by number of heavy atoms (falling): four of the compounds above
No.	SMILES	GIRK2 activ
21	COc1ccc(S(=O)(=O)N2CCCOC2CNC(=O)C(=O)NC2CC2)cc1OC (configuration not stated)	i
22	Cc1cc(NC(=O)C2CCN(C(=O)c3csc(-c4ccccc4)n3)CC2)no1	i
6	CCCN(C)c1nccn2c(=O)n(CC(=O)Nc3ccc(Br)cc3)nc12	i
8	CC(=O)Nc1ccc(SCCCC(=O)Nc2ncc([N+](=O)[O-])s2)nn1	i

# Further results follow:
No.	SMILES	GIRK2 activ
31	CC(C)c1ccc(NC(=O)C2OC3OC(C)(C)OC3C3OC(C)(C)OC23)cc1 (configuration not stated)	i
32	CS(=O)(=O)Oc1ccc2c(=O)c(-c3ccc(Cl)cc3)coc2c1	i
33	CCN(C(=O)Cn1cccc(S(=O)(=O)N2CCOCC2)c1=O)c1ccccc1	i
34	COc1ccccc1C(=O)Nc1ccccc1NC(=O)Nc1cccs1	i
35	COc1ccc(/C=C\C(=O)N2CCN(Cc3nc4ccccc4n3C)CC2)cc1OC	i
36	COc1ccc(CCNC(=O)Cn2ccn3nc(-c4ccc(OC)c(OC)c4)cc3c2=O)cc1OC	i
37	CC(=O)c1cccc(NC(=O)CN2CCN(c3cccc(Cl)c3)C2=O)c1	i
38	COc1ccc(CNC(=O)Cn2nc3c(c2NC(=O)c2cccc(F)c2)CSC3)cc1	i
39	CCCS(=O)(=O)NCCn1ncc2c(NCCc3ccccc3)ncnc21	i
40	COc1ccc(NC(=O)c2sccc2S(=O)(=O)N(C)c2ccc(Cl)cc2)cc1Cl	i
41	Cc1ccc(S(=O)(=O)N2CCC(CSc3ccccn3)CC2)cc1	i
42	O=c1[nH]c2nc(N3CCC(Cc4ccccc4)CC3)ncc2c(=O)n1C1CCCC1	i
43	O=C(NCC#CCN1CCCCC1)C1CC(=O)N(c2ccc(F)cc2)C1 (configuration not stated)	i
44	COc1ccc(-c2csc3c(=O)n(CC(=O)N4CCOc5ccc(C)cc54)cnc23)cc1	i
45	COc1cccc(CNC(=O)Cn2cccc(S(=O)(=O)N3CCCCC3)c2=O)c1	i
46	O=C1NC2(CCN(C(=O)NCCc3ccccc3)CC2)Nc2c(Cl)cccc21	i
47	Cc1cn2c3c(=O)n(CCc4ccccc4)c(=O)n(C)c3nc2n1CCN1CCOCC1	i
48	COc1ccc(C(=O)N2CCN(c3ccc(-c4noc(C5CC5)n4)cn3)CC2)cc1OC	i
49	CC(C)OCCCNC(=O)c1c(N)n(/N=C\c2ccncc2)c2nc3ccccc3nc12	i
50	COC(=O)NCCN1CCN(c2ccc(OC)cc2)CC1	i
51	O=C(Cc1ccc(NC(=O)NCc2cccc3ccccc23)cc1)NCc1cccs1	i
52	Cc1cn2c3c(=O)[nH]c(=O)n(C)c3nc2n1CCN1CCN(CCc2ccccc2)CC1	i
53	Cc1nnc(NC(=O)C2CCCN(Cc3nc(-c4cccs4)no3)C2)s1 (configuration not stated)	i
54	COc1ccc(-c2coc3cc(OCC(=O)O)ccc3c2=O)cc1OC	i
55	CCCCN1CC(c2nc3ccccc3n2CCCOc2ccccc2C)CC1=O (configuration not stated)	i
56	Cc1ccc(C2c3c(oc4cc(C)c(C)cc4c3=O)C(=O)N2c2cc(C)on2)cc1 (configuration not stated)	i
57	Cc1ccc(Cl)cc1NC(=O)Cn1nc2c(N3CCN(c4ccccc4)CC3)nccn2c1=O	i
58	COc1cc(C)c(C)cc1S(=O)(=O)NCC1CCN(C(=O)c2cccnc2)CC1	i
59	CCOc1ccccc1CN1C(=O)C(NC(C)=O)c2cc(Cl)ccc21 (configuration not stated)	i
60	C=CCOC(=O)C1=C(C)NC(=O)NC1c1ccc(Cl)cc1 (configuration not stated)	i

# Of the compounds above, 5 contain a furan ring, fused or not:
No.	SMILES	GIRK2 activ
11	Cc1cccc(C)c1NC(=O)CSc1nccn1-c1ccc(C(=O)NCc2ccco2)cc1	i
18	O=C(c1ccc(Br)o1)N1CC(c2nc(-c3cnccn3)no2)C1	i
23	Cc1nc(SCCO)c2oc3ccccc3c2n1	i
28	O=C(CN1CCN(C(=O)c2cc3ccccc3o2)CC1)c1ccco1	i
29	Cc1ccc(-c2ccc(CCC(=O)Nc3ccc(S(N)(=O)=O)cc3)o2)cc1	i

# The listing continues:
No.	SMILES	GIRK2 activ
61	COCCCn1c(C(=O)Nc2ccccc2C(N)=O)cc2c(=O)n(C)c(=O)n(C)c21	i
62	COCCn1c(N)c(C(=O)OC2CCCCC2)c2nc3ccccc3nc21	i
63	COCCN(Cc1ccsc1)C(=O)Nc1ccccc1	i
64	CN(c1ccc(NC(=O)Nc2c(Cl)cccc2Cl)cc1)c1ccnc(Nc2cccc(CS(C)(=O)=O)c2)n1	i
65	O=C(NCC1(O)CCOc2ccccc21)C12CC3CC(CC(C3)C1)C2 (configuration not stated)	i
66	Cc1cccc(N2C(=O)N(c3cccc(C(F)(F)F)c3)C3CS(=O)(=O)CC32)c1C (configuration not stated)	i
67	Cc1noc(C)c1Cn1cccc(-c2nc(-c3ccncc3)no2)c1=O	i
68	Cc1ccc(NC(=O)CCc2csc(NC(=O)NC3CCCCC3)n2)c(C)c1	i
69	CSc1cccc2sc(N(CC3CCCO3)C(=O)c3cccs3)nc12 (configuration not stated)	i
70	CCc1ccccc1NC(=O)NCc1sc(-c2ccccc2F)nc1C	i
71	COc1cccc(CSc2nccn(-c3ccc(F)cc3)c2=O)c1	i
72	COc1ccc2c(c1)c(CC(=O)NCCCCO)c(C)n2C(=O)c1ccc(Cl)cc1	i
73	CCN1CCN(C(=O)N(Cc2ccc(Cl)cc2)S(=O)(=O)c2ccc(C)cc2)CC1	i
74	COc1ccc(OC)c(/C=C2\CCn3c2nc(=O)c2ccccc23)c1	i
75	O=C(CN1CCN(CC(=O)c2ccco2)CC1)Nc1ccc(Cl)c(Cl)c1	i
76	COCCCNC(=O)/C(C#N)=C1\N=C(NC(=O)c2ccccc2)c2ccccc21	i
77	COc1ccc2c(c1)c(CC(=O)Nc1ccc(I)cc1)c(C)n2C(=O)c1ccc(Cl)cc1	i
78	Cc1ccc(-c2noc(-c3cccnc3SCC(=O)Nc3ccccc3F)n2)cc1	i
79	O=C(C(=O)N1CCc2ccccc2C1)c1c[nH]c2ccccc12	i
80	O=C(NCCc1ccccc1Cl)c1ccc(Cn2c(=S)[nH]c3cc4c(cc3c2=O)OCO4)cc1	i
81	Cc1ccc(NC(=O)C(=O)NCCCN(C)C)c(C)c1	i
82	Cc1nc(NCCNC(=O)c2cccc(C(F)(F)F)c2)cc(Nc2ccccn2)n1	i
83	CC(C)c1ccc(-c2cc(-c3cn[nH]c3-c3ccccn3)ccn2)cc1	i
84	Cc1ccc(-n2ccc(=O)c(-c3nc(-c4cccc(Cl)c4)no3)n2)cc1	i
85	CN1CCC(CNC(=O)c2nc3ccccc3s2)CC1	i
86	N#Cc1ccc(CSc2nccc(-c3ccc4c(c3)OCO4)n2)cc1	i
87	c1cc(-c2cnn3nc(N4CCOCC4)ccc23)nc(NC2CC2)n1	i
88	Cc1cc(C)cc(N2CC(C)Cn3c2nc2c3c(=O)n(CC(=O)O)c(=O)n2C)c1 (configuration not stated)	i
89	COc1ccc(NC(=O)Cc2cc(=O)[nH]c(SCc3cccc(Cl)c3)n2)c(OC)c1	i
90	O=C(Nc1cccc2cccnc12)c1nnn(-c2ccccc2)n1	i
91	Cc1csc(SCC2CCN(S(=O)(=O)c3ccc(F)c(Cl)c3)CC2)n1	i
92	O=S(=O)(c1ccccc1)N1CCN(c2cc(N3CCCCC3)ncn2)CC1	i
93	Cc1cc(C)c(NS(=O)(=O)c2c(C)cc(C)cc2C)c(C)c1	i
94	COc1ccc(CC(=O)NCCCS(=O)(=O)N2CCN(c3ccc(F)cc3)CC2)cc1	i
95	CC(=O)N1C2CCC1COC2	i
96	N#Cc1cnc2ccc(F)cc2c1N1CCC(C(=O)N2CCC(Cc3ccccc3)CC2)CC1	i
97	CCc1[nH]nc(S(=O)(=O)N2CCN(c3cccc(C)c3C)CC2)c1C(=O)OC	i
98	O=C(c1c[nH]c2ccccc12)N1CCN(Cc2nnnn2-c2ccccc2)CC1	i
99	Cc1cc(C)n(-c2cc(N3CCN(C(=O)c4c(-c5ccccc5Cl)noc4C)CC3)nc(C)n2)n1	i
100	Cc1cc(C)n(CCNC(=O)c2cc(-c3ccco3)on2)n1	i
101	COc1ccc(-c2c(NC(=O)c3cccs3)oc3ccc(Cl)cc3c2=O)cc1OC	i
102	COc1ccc(-n2nnc(C(=O)N3CCN(c4ccc(C(F)(F)F)cn4)CC3)n2)cc1	i
103	CCc1ccc(NC(=O)NCCNc2ccc(C)nn2)cc1	i
104	O=C(COc1ccc(Cl)cc1Cl)N1CCCC(c2nnc(-c3ccccc3F)s2)C1 (configuration not stated)	i
105	O=C(CSc1nnc(Cn2ccc(=O)[nH]c2=O)o1)NCc1ccc(F)cc1	i
106	COc1cccc2cc(-c3csc(Cc4nc(-c5cccnc5)no4)n3)c(=O)oc12	i
107	COc1cc2c(cc1OC)CN(C(=O)CSc1nnc3ccc4ccccc4n13)CC2	i
108	O=C(CCn1cnc2ccccc2c1=O)NCc1cnn2ccccc12	i
109	O=C(c1ccco1)N1CCN(CC(O)C2CC2)CC1 (configuration not stated)	i
110	O=C(c1ccc(S(=O)(=O)N2CCOCC2)cc1)N1CCOCC1	i
111	N#Cc1cccc(C(=O)N2CCC(Oc3nc4c(Cl)cccc4s3)CC2)c1	i
112	CC(C)Sc1ccc(CC(=O)N2CCN(S(=O)(=O)C3CC3)CC2)cc1	i
113	CN(CCC#N)Cc1cc(=O)oc2cc(-c3ccccc3)c(O)cc12	i
114	O=C(c1ccc(-n2cccc2)cc1)N1CCN(c2cc(-c3ccccc3)ncn2)CC1	i
115	COc1cc(OC)c(OC)cc1/C=C1\Oc2cc(OC(=O)c3ccco3)ccc2C1=O	i
116	CCNC(=O)c1cn(-c2ccc(SCC(=O)Nc3cc(C)ccc3C)nn2)cn1	i
117	O=C(Nc1ccccc1C(F)(F)F)c1c[nH]c2c(Cl)cccc2c1=O	i
118	O=C(c1cc(-c2ccco2)on1)N1CCN(CC(O)c2ccco2)CC1 (configuration not stated)	i
119	Cc1nc(NCCNC(=O)C2CCCO2)cc(Nc2ccccn2)n1 (configuration not stated)	i
120	COc1ccc(CNC(=O)c2nnn(-c3ccc(F)cc3)c2-c2ccncc2)c(OC)c1	i

# (next part)
No.	SMILES	GIRK2 activ
121	C=CCc1ccccc1OCC(O)CN1CCOCC1 (configuration not stated)	i
122	COc1ccc(C2CC3C4NN=C(CCC(=O)NCc5ccco5)N4C=CN3N2)cc1 (configuration not stated)	i
123	Cc1cc(S(=O)(=O)NCC(c2ccc3c(c2)OCO3)N2CCOCC2)ccc1F (configuration not stated)	i
124	COc1ccccc1N1CCN(C(=O)Cc2csc(-n3cccc3)n2)CC1	i
125	CCn1cnc2c(-c3ccccc3)cn(CC(=O)Nc3ccccc3OC)c2c1=O	i
126	Cc1ccc(NC(=O)COc2cc(C)nc(N3CCC(C)CC3)n2)c(C)c1	i
127	O=C(NCCC1=CCCCC1)c1coc(NC(=O)c2cnccn2)n1	i
128	Cn1cccc(C(=O)NCC2(O)CCCC2)c1=O	i
129	O=C1COc2cc(Cl)ccc2N1Cc1nc(-c2ccc(Cl)c(F)c2)no1	i
130	COc1ccc(-c2cnc(N)nc2-c2ccc(OCc3ccc(C)cc3)cc2O)cc1OC	i
